eIF4H FP inh = inhibitors of RNA binding by human eIF4H | Q15056 | eIF4H fluorescence polarization binding assay | inhibition, % at 35 µM | hit rate 0.94% among 290,000 | AID 2012;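 active = 50% or more with normal probe brightness, or confirmed in later tests; about a fifth of its hits are not listed in these tables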;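 note: calls also rest on retests at 20 µM and on dose response follow-up; 0% = protein and probe with vehicle and 100% = probe without protein; strong numbers were not always called active; many hits fall short of the cut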
Yeast UUG start = alters start codon recognition fidelity in yeast; S. cerevisiae UUG-firefly luciferase reporter, luminescence/redox ratio; activity score, % at 18.7 µM; hit rate 0.13% among 350,000; AID 602363;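 active = replicate mean at a twofold rise or more, about +100% in these data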;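 note: firefly luciferase made from a UUG start codon reports start codon fidelity; reporter light over untreated wells divided by growth signal over untreated wells; some hits fall short of that in this replicate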
Rce1 inh = inhibitors of yeast Ras-converting enzyme; Q03530; yeast membranes, quenched prenylated peptide cleavage fluorescence; calls only; hit rate 0.27% among 290,000; AID 2563;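 active = fall in fluorescence gain of 50% or more versus controls, with final raw signal at or below 3038400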;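 note: plate controls were neutral control wells for no effect and wells lacking membranes for full effect; tested at 10 µM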
Target sequence (Q03530 whole entry, looked up): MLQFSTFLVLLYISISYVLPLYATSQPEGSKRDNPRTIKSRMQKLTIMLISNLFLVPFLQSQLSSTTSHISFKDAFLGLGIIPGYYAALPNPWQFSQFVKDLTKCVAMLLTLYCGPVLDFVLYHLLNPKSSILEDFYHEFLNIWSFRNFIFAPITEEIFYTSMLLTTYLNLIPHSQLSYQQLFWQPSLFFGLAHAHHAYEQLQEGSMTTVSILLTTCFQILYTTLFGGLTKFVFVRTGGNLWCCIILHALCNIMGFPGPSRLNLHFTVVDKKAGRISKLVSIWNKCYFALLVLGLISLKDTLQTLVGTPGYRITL
MT1-MMP act inh = MT1-MMP (human) activation inhibition; GFP/RFP ratio change, % at 20 µM; hit rate 0.061% among 360,000; P50281; HT1080 RFP-PRO-GFP cells, GFP/RFP ratio fluorescence, overnight; percent of plate control window, DMSO zero; AID 651647;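 active = GFP/RFP ratio change of at least 30% with cell ATP level not reduced by more than half and red fluorescence within 50% of control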; note: strong numbers were not always called active
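Test system: HT1080 cells expressing an RFP-PRO-GFP fluorescent reporter construct / Compound dosing: single-point 20 µM compound, 1% DMSO / Schedule: cells overnight before dosing, compound overnight, 37 °C, 5% CO2 / Evaluation: GFP/RFP fluorescence ratio / Control set: DMSO and RFP-L50D-GFP cell wells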
HIV Env fusion = blocks HIV Env-driven cell-cell fusion | HeLa-JRFL Env/CEM21 cell fusion, luciferase | inhibition, % at 12.3 µM | hit rate 1.1% among 360,000;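 active = mean replicate inhibition score of at least 50 and every replicate individually at or above 50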;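 note: 0% = plate neutral controls and 100% = maraviroc near 300 nM; one replicate is shown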
CSC inhib = cancer stem cell inhibition. cancer stem cell-like cells viability, luminescence. hit rate 1.1% among 300,000. inhibition, % at 7.5 µM;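 active = mean at 75% or more and at least half the replicates too; tested in HMLE shEcad cells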;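 note: 0% = median of negative and 100% = median of positive control wells; the first replicate is given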
PABP polyA inh = PABP-poly(A) binding inhibition. P11940. PABP-poly(A) RNA binding, fluorescence polarization. inhibition, % at 35 µM. hit rate 1% among 290,000. AID 2014;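 active = 50% or more with normal probe brightness, or confirmed in later tests; about a fifth of its hits are not listed in these tables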;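 note: calls also rest on retests at 20 µM and on dose response follow-up; controls were probe without protein and protein plus probe with vehicle; some compounds called inactive have numbers as strong as hits; many hits fall short of the cut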
Target sequence (P11940 whole entry, looked up): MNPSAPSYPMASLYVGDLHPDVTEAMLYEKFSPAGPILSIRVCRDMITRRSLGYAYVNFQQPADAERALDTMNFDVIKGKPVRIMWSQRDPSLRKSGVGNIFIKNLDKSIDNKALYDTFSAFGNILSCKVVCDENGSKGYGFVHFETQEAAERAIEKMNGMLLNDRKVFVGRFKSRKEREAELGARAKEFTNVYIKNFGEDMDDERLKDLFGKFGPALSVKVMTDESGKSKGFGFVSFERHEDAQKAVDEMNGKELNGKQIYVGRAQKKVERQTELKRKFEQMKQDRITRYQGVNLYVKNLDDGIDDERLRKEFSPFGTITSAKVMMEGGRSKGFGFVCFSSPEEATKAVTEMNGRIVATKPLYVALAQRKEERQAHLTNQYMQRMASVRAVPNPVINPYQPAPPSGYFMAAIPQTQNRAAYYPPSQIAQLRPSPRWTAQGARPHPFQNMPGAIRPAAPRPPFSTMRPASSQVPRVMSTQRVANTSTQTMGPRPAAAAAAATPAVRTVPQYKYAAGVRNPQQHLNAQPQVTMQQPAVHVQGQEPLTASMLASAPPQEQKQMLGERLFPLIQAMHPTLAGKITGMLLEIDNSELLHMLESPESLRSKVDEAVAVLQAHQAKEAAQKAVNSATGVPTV
eIF4H FP inh retest = further read-out of eIF4H FP inh, marked with its call; inhibition, %; compound at 20 µM; confirmation average;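 mean of two retest wells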
PABP polyA inh retest = recorded beside PABP polyA inh, whose call it bears; inhibition, %; compound at 20 µM; confirmation repeats;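 mean of two retest wells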
MT1-MMP act inh RFP = second read-out of MT1-MMP act inh, no call of its own (marks repeat the call); RFP signal change, %; measured here: RFP expression control read;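 0 = vehicle wells; hits needed this value within 50% of zero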
* = called active by the depositor; i = inactive; / = no result given; [ ] = dose if it differs, or a comment.

The opening 2 entries, ahead of the listing:
SMILES	eIF4H FP inh	Yeast UUG start	Rce1 inh	MT1-MMP act inh	MT1-MMP act inh RFP	HIV Env fusion	CSC inhib	PABP polyA inh	others
N#Cc1ccccc1S(=O)(=O)N1CCN(c2ccc(S(=O)(=O)N3CCOCC3)cn2)CC1	-18.3	/	i	-4.3	-4.3	-56.6	23.4	-0.7
O=C(/C=C/c1ccc(Cl)cc1Cl)NCCSCc1ccccc1	6.1	/	i	2.5	2.4	3.7	28.6	0.7

The list itself (from the top)
SMILES	eIF4H FP inh	Yeast UUG start	Rce1 inh	MT1-MMP act inh	MT1-MMP act inh RFP	HIV Env fusion	CSC inhib	PABP polyA inh	others
N#Cc1ccccc1S(=O)(=O)N1CCN(c2ccc(S(=O)(=O)N3CCOCC3)cn2)CC1	-18.3	/	i	-4.3	-4.3	-56.6	23.4	-0.7
O=C(/C=C/c1ccc(Cl)cc1Cl)NCCSCc1ccccc1	6.1	/	i	2.5	2.4	3.7	28.6	0.7
CC(=O)Nc1ccc(OCC(O)Cn2c3ccccc3c3ccccc32)cc1 (centres undefined)	1.1	/	i	-0.5	-7.7	36.4	52.2	5.9
O=C(Cc1ccc(NC(=O)C2CCCN(C(=O)CCc3ccccc3)C2)cc1)Nc1cccc(C(=O)N2CCCCC2)c1 (centres undefined)	/	-6.8	/	-1.7	-16.9	14.0	/	/
CCOc1ccc(S(=O)(=O)Nc2cccc(C(=O)N3CCN(c4ccc(OC)cc4)CC3)c2)cc1	17.8	11.7	i	-1.1	-8.3	-90.7	5.5	2.3
O=C(O)c1nn(CCOc2cccc(Cl)c2)c(=O)c2ccccc12	-3.0	/	i	6.7	4.0	12.5	9.0	-9.4
CCN(C[C@H]1N[C@@](Cc2ccccc2)(C(=O)OC)[C@H]2C(=O)N(C)C(=O)[C@@H]12)C(=O)NC(C)C	/	-4.1	/	4.1	6.7	-10.5	-8.8	/
CC1(C)Cc2c(sc(NC(=O)C(=O)N3CCCCC3)c2C(N)=O)CO1	-3.9	/	i	-4.5	-4.1	5.6	2.1	-0.7
N/C(=N\OC(=O)N1c2ccccc2Sc2ccccc21)c1ccccc1	-14.6	-17.3	i	8.5	9.4	-0.6	1.2	-6.9
O=C(CSc1ncnc2c(-c3ccc(Cl)cc3)nsc12)c1ccccc1	-3.7	-24.3	i	-7.7	-6.2	/	43.5	-3.5
O=C(COc1ccccc1Br)N1CCNC1=O	/	-13.4	/	-1.0	1.5	/	-15.1	/
COc1ccc(OC)c(S(=O)(=O)Nc2ccc(C(N)=O)cc2)c1	3.9	-4.3	i	5.7	4.2	/	-10.3	3.4
Cc1c(N=c2scc(-c3ccccc3)n2C)c(=O)n(-c2ccccc2)n1C	0.9	/	i	4.7	-0.6	-0.3	-14.0	15.9
CCOc1ccccc1NC(=O)CSc1nc(=O)n(Cc2ccncc2)c2c1CCC2	/	-4.1	i	-1.3	-6.6	7.4	/	/
CCOc1ccc(C2C(C(=O)c3ccco3)=C(O)C(=O)N2CCCn2ccnc2)cc1 (centres undefined)	-0.3	-12.8	i	1.6	7.2	-83.6	/	2.0
O=C(CSc1nnc2ccccn12)NNC(=O)c1ccc(Br)cc1	-9.2	-16.2	i	-0.8	1.3	-9.1	-2.1	8.4
O=C(NCc1cccc(CNC(=O)C(=O)NCc2ccco2)c1)C(=O)NCc1ccco1	54.9	/	i	-1.9	0.9	-9.8	-7.8	-4.7	eIF4H FP inh retest=49.2;PABP polyA inh retest=9.7
CC(=O)c1ccccc1NC(=O)CN1C(=O)CS/C1=C\c1nc(-c2ccc(C)cc2)cs1	-11.1	/	i	-1.8	1.3	-10.6	-2.8	-3.5
COC(=O)CSC1=C(C#N)C(c2ccc3c(c2)OCO3)C2=C(CCCC2=O)N1 (centres undefined)	-0.2	-6.5	i	2.9	-3.5	/	-2.6	4.1
CC(=O)c1sc(NCCOc2ccc(C)cc2)nc1C	-8.1	/	i	-2.9	-9.8	26.9	-6.4	-5.3
CSCCOC(=O)C1=C(C)Nc2ccc(C)cc2S1	3.7	-15.9	i	3.7	1.3	/	-3.5	3.4
O=C(COC(=O)c1ccccc1Nc1ccc(SC(F)F)cc1)NCc1ccco1	3.8	-9.1	i	5.4	5.3	-86.6	33.9	10.4
CN(C)CC(=O)N[C@@H]1CC[C@@H](CC(=O)NCCN2CCCCC2)O[C@@H]1CO	/	-25.6	/	8.8	11.2	-9.0[16.7 µM]	/	/
Cc1ccc(S(=O)(=O)NCCSc2nnnn2C)cc1	-6.5	-4.5	i	-1.4	-1.0	-3.7	10.4	2.8
COc1ccc(/C=N/NC(=O)c2ccccc2O)cc1CSc1ccccn1	-0.1	/	i	-4.1	3.7	-33.0	-11.2	-10.5
O=C(C[C@H]1C[C@H](C(=O)N2CCCCC2)[C@@]2(CCc3ccccc3)c3[nH]c4ccc(Cl)cc4c3CCN2C1=O)NCCC1=CCCCC1	/	-8.1	/	-7.2	-10.8	20.6	/	/
O=C(CCSc1nnc(-c2ccncc2)o1)Nc1cccc(Cl)c1	-3.0	/	i	2.7	-0.9	-3.8	6.7	-2.4
FC(F)(F)c1cc(-c2ccc3c(c2)OCO3)nc(NCc2ccco2)n1	-6.8	49.0	/	0.1	-6.2	-13.0	1.3	-6.3
CCN(CC(=O)NCc1ccc(F)cc1)C(=O)CN1CCN(c2cc(Cl)ccc2C)CC1	-9.9	-8.5	/	-0.1	-6.4	21.5	-5.2	-1.4
CC(=O)c1cccc(NC(=O)CCC2CCCC2)c1	-5.8	16.6	i	2.5	-0.5	-14.1	-10.7	-2.4
CCCCn1nc2cc(C(=O)NCCCCc3ccccc3)ccc2c1OCC	-11.3	14.8	i	-2.3	-3.3	2.3	44.2	1.0
CCC(=O)N1c2ccc(C)cc2C2=NNC(=S)NC21O (centres undefined)	1.8	9.4	i	1.7	2.0	/	2.3	0.9
Cc1oc(-c2cccc(Cl)c2)nc1CN1CCC(C(=O)NCc2cccnc2)CC1	-5.7	-13.7	i	5.4	2.5	-10.7	-6.9	10.5
COc1ccc(/C=N/OCC(=O)Nc2cc(C)on2)cc1OC	-14.3	-7.4	i	0.9	1.8	-9.6	1.7	28.3
Cc1ccc(C2(c3ccc(C)cc3)CC2C(=O)Nc2ccc([N+](=O)[O-])cc2O)cc1 (centres undefined)	-4.5	-5.8	i	5.0	-32.2	/	173.6*	-10.6
O=C(NCC(O)c1ccc([N+](=O)[O-])cc1)C(c1ccccc1)c1ccccc1 (centres undefined)	-2.8	-2.8	/	3.7	-2.0	13.5	-9.7	-0.1
CCOC(=O)C(NC(=O)Nc1ccc(Cl)cn1)(Oc1ccc(F)cc1)C(F)(F)F (centres undefined)	14.3	-4.8	i	3.9	3.6	/	2.3	-5.2
CCc1nnc(NC(=O)CSc2nnc(-c3ccco3)o2)s1	-2.6	-23.2	i	-1.6	5.6	1.7	-12.1	9.6
COc1cc(C(=O)Oc2cc(N)n(S(=O)(=O)c3ccc(F)cc3)n2)cc(OC)c1OC	-7.5	0.3	i	-0.2	-1.0	1.8	0.0	15.3
CC1(C)CC(=O)C(C=Nc2ccc(N)cc2)=C(O)C1	-6.7	/	i	3.5	2.5	14.7	/	-12.4
CCN(CC)Cc1c(O)ccc2c(=O)c(-c3ccc(Cl)cc3)coc12	0.7	-12.8	i	2.2	-3.4	11.5	-9.6	-2.8
N=C(N=C(N)N)N1CCc2ccccc21	-5.0	-9.2	i	-3.1	1.4	0.2	/	-0.5
CC(O)(CS(=O)(=O)Cc1ccccc1)c1ccccc1Cl (centres undefined)	14.6	10.8	i	0.8	4.6	13.0	20.1	10.2
CCc1cc(CNC(=O)CC2C(=O)NCCN2Cc2cccc(OC)c2)on1 (centres undefined)	0.5	/	i	-1.0	3.0	17.3	-2.0	13.1
Cc1ccccc1-c1ccc(CN2C(C(C)C)C(=O)N(Cc3cn(CCC4OCCO4)nn3)CCS2(=O)=O)cc1 (centres undefined)	/	-1.5	/	4.0	-12.9	9.8	/	/
CC(C)Oc1cccc(C(=O)NC2=NCCS2)c1	0.5	-12.4	i	-0.6	-0.6	-30.4	-12.6	2.6
CCN(CC(=O)Nc1cc(Cl)ccc1C)CC(=O)NC1CC1	/	-17.4	/	2.1	5.7	-6.2	/	/
Cc1ccccc1NC(=S)N1CCC(C(=O)c2ccc(F)cc2)CC1	-18.5	-28.4	i	-1.6	-3.0	/	0.3	1.1
COc1ccc(N(CC(=O)NC2CCCCC2)C(=O)CCCC(=O)Nc2ccccn2)c(OC)c1	-6.7	16.9	i	5.8	2.6	/	-8.4	0.4
Cc1cc(NC(=O)CSc2ncc(C(F)(F)F)cc2Cl)no1	/	-15.2	/	-0.9	-0.8	-11.1	-11.1	/
Remaining list, next part
SMILES	eIF4H FP inh	Yeast UUG start	Rce1 inh	MT1-MMP act inh	MT1-MMP act inh RFP	HIV Env fusion	CSC inhib	PABP polyA inh	others
O=S(=O)(c1ccc2c(c1)nc1n2CCC1)N1CCOCC1	-1.7	-15.8	/	2.7	6.1	2.2	-6.6	7.4
Cc1ccc(NC(=O)c2ccccc2NC(=O)CCC(=O)O)cc1	5.7	/	i	-1.8	-4.7	-3.5	-28.9	5.9
CCn1c(=N)n(CC(=O)OC)c2ccccc21	-9.1	-14.3	i	1.8	-5.4	/	-5.6	10.8
Cc1ccc(NC(=O)c2ncn(CC(=O)N[C@H](C)c3cccc4ccccc34)n2)cc1C	/	-11.5	/	-0.4	-5.0	-15.9	/	/
CCCCC(C(=O)O)C(C)CC(=O)NNC(=O)c1ccco1 (centres undefined)	-0.2	/	i	-0.5	1.5	-7.3	-3.1	-10.1
CCS(=O)(=O)N1CCC(C(=O)Oc2ccccc2Cl)CC1	0.6	-5.4	i	0.0	2.2	-28.7	3.0	-2.3
O=[N+]([O-])c1ccc2c(c1)oc1ccccc12	-4.0	-11.5	i	-0.2	2.5	-414.2	-2.5	34.5
CC1CCCN(C(=O)c2ccc(-c3ccccc3Cl)o2)C1 (centres undefined)	/	-22.6	i	-4.9	-3.0	-115.0	22.7	/
c1ccc(COc2cccc(CNn3cnnc3)c2)cc1	6.8	0.5	i	7.8	-4.4	/	-8.2	0.8
Cc1cc(=O)oc2cc(OCC(=O)N3CC(C)OC(C)C3)ccc12 (centres undefined)	-1.0	/	i	/	/	/	-12.3	5.8
CCCCC(=O)NC(=S)NNC(=O)CC#N	22.5	-5.6	i	4.8	-0.9	/	-12.5	12.4
CCc1ccccc1NC(=O)Nc1cccn(Cc2ccccc2F)c1=O	-12.4	/	i	-41.2	-39.0	8.2	/	-14.8
COc1ccc2c(CN3CCN(c4ccccc4F)CC3)cc(=O)oc2c1	/	-1.6	/	2.4	-0.4	14.2	/	/
COc1ccc(-c2cccc(NC(=O)COc3ccc(Cl)cc3)c2)nn1	-4.0	-13.5	i	3.6	-2.4	/	-4.7	1.9
COc1cc2cnc(-c3ccsc3)c(-c3ccc(F)cc3)c2cc1OC	/	-5.2	/	2.2	-3.9	17.5	34.0	/
CC1(C)Cc2c(c(N3CCCC3)nc3sc4c(N5CCNCC5)ncnc4c23)CO1	-2.2	/	i	/	/	/	10.1	-13.6
O=C(/C=C/c1cccc(Cl)c1)NCc1cccs1	-3.0	-16.2	i	4.6	0.9	8.0	-14.5	6.4
Cc1ccc(-c2[nH]c(-c3ccccc3)nc2SCC(=O)NCC2CCCO2)cc1 (centres undefined)	-1.3	1.1	i	-0.2	-3.1	20.5	-23.7	53.5	eIF4H FP inh retest=-1.7;PABP polyA inh retest=-2.8
Cc1ccc(Nc2cc(-n3nc(C)cc3C)ncn2)cc1	1.2	-27.1	i	-0.9	-1.2	-23.4	8.3	-5.9
O=C(NNC(=O)c1cccs1)c1ccc([N+](=O)[O-])cc1	-7.1	/	/	/	/	8.3	0.8	8.6
CN(C)CCNc1ncnc2sc(-c3ccccc3)cc12	2.9	-4.1	i	1.4	-2.7	-2.9	0.5	-7.5

High-throughput results from PubChem.

These rows are one share of the data, so the mix of outcomes need not match the whole.
